Assay outcomes deposited in PubChem BioAssay by ICCB-Longwood Screening Facility, Harvard Medical School.
AID504770: E. coli YBA685 growth inhibition, screen for V. cholerae RctB inhibitors. z-score (concentration not given with the values). actives 0.27% (n = 130,000). E. coli YBA685 rctB-dependent plasmid, OD600 growth, 3 h; active compounds read low;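 active = z-score under -2 on both plates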;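 note: wells of about 30 µL received 100 nL stock; score is relative to mean and SD of the test wells; the first replicate is given; strong numbers were not always called active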
Ba CapD inh: CapD enzyme inhibition; AID 492967; purified CapD enzyme, fluorescence intensity read-out; active compounds read low; some hits fall short of the stated cut; actives 0.23% (n = 140,000); z-score (concentration not given with the values);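 active = z-score under -4 in either of two replicates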;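 note: stock transfer was 100 nL into about 40 µL; score is relative to mean and spread of the plate; one replicate is shown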
Numbers without * were called inactive; . = no result given; & = joins results of further samples.

SMILES	AID504770	Ba CapD inh
Cc1nc2ccc(S(=O)(=O)N(C)CC(=O)NC3CCCC3)cc2s1	-0.1	0.13
O=C(O)c1cccc(-c2cccc(C(=O)O)c2)c1	-0.2	-0.1
O=C(NC1CCN(C(=O)c2ccc(Cl)cc2Cl)CC1)C1CCCCC1	.	0.015
CNC(=O)Nc1ccc(C)c(Cl)c1	.	-0.335
COc1ccc(OC)c(CNC(=O)c2cc3cc4ccc(C)cc4nc3o2)c1	-1.2	6.15
COc1ccccc1N1CCN(C(=O)c2cnn3c(C)c(Cc4cccc(C)c4)c(C)nc23)CC1	-0.5	0.415
O/N=C1/C2CN3CCN(C2)CC1(Cc1ccccc1)C3	-1.2	0.065
COc1ccc(Cl)cc1NC(=O)CN(C)CN1C(=O)C2CC=CCC2C1=O (stereo not given)	0	.
CC(=O)Nc1ccccc1C(=O)NN	0.05	0.29
S=C1NC2(CCCCCC2)NN1c1ccccc1	0.15	0.52&-0.09
COc1cc(C)c2c(=O)c(-c3csc(C)n3)coc2c1	1.6	0.295
Cc1ccccc1C(=O)Nc1ccc2nc3n(c(=O)c2c1)CCC3	-0.35	0.72
CCOC(=O)Cc1nc(O)cs1	0.05	-0.14
O=C(O)/C=C/c1ccc(N2CCCCCC2)cc1	-1	.
N#CC1=C(N)C(C#N)=c2s/c(=C/c3cccc(F)c3)c(=O)n2C1c1cccc(F)c1 (stereo not given)	1.3	-0.235
CN(C)CCCNc1nnnn1-c1ccccc1	-0.1	.
COC(CNC(=O)c1cc2c(s1)CS(=O)(=O)C2)OC	-0.05	0.325
CC(C)N1CCc2c(sc(NC(=O)C(C)(C)C)c2C#N)C1	-0.15	0.55
CCCS(=O)(=O)N1CCN(c2ccc(NCC3CCCO3)nn2)CC1 (stereo not given)	-0.75	.
Cc1cccc(C)c1NC(=S)NC12CC3CC(CC(C3)C1)C2	1.5	-0.055
COc1cc(C=NCCCCN=Cc2cc(OC)c(OC)c(OC)c2)cc(OC)c1OC	.	0.435
O=S(=O)(NCc1ccccc1Cl)c1ccc2[nH]c3nc4nc(-c5ccc(Br)cc5)cn4nc3c2c1	.	0.145
O=c1c2ccccc2nc(Sc2c([N+](=O)[O-])cc(C(F)(F)F)cc2[N+](=O)[O-])n1-c1ccc(F)cc1	.	-0.545
COc1ccccc1NC(=O)CSc1nc2c(cc1C#N)CCCC2	.	-0.405
COc1ccc(CCNC(=O)Cn2cnc3onc(-c4ccc(Cl)cc4)c3c2=O)cc1OC	-0.05	0.11
O=C(c1ccc(Cl)cc1)N(Cc1cccnc1)Cc1cccnc1	-0.05	0.4
CN(C)CCN(C)Cc1cc(C(C)(C)C)c(O)c(C(C)(C)C)c1	-0.15	0.615
Cc1ccc(S(=O)(=O)N2CCCC2)cc1C(=O)O	-0.35	.
CCOC(=O)c1c(N=CN(C)C)c(C#N)c2n1CCC2	-1	-0.13
COc1ccccc1Oc1coc2cc(OCC(N)=O)ccc2c1=O	-0.05	-0.425
COc1ccc(OCCn2c(-c3ccc(Cl)cc3)nc3ccccc3c2=O)cc1	0	0.145
O=C(CC(SCc1ccco1)c1ccc(C(F)(F)F)cc1)c1ccco1 (stereo not given)	.	-0.37
O=C(Cn1cc2c(n1)CCCC2)Nc1ccc2c(c1)OCCO2	-0.25	-0.005
COc1ccc(NCC(=O)N/N=C2\CCc3ccccc32)cc1	-0.25	.
COc1ccc(-c2ccnc(SCC(=O)N3CCOCC3)n2)cc1	-0.55	40.4
Cc1nc(CCNC(=O)c2ccccc2)cs1	-1.6	4.62
N=C1/C(=C2\Nc3ccccc3S2)CC(=O)N1C1CC1	0	.
O=C(CN1C(=O)C2C3C=CC(C3)C2C1=O)Nc1nc(SCc2ccc(Cl)cc2)n[nH]1 (stereo not given)	-0.2	.
CCOc1cccc(N2C(=O)/C(=C/c3cn(CC(=O)N4CCOCC4)c4ccccc34)C(=O)NC2=S)c1	.	0.76
CCCS(=O)(=O)Cc1nnc(-c2ccc(C(C)(C)C)cc2)o1	3.45	-1.27
CCC1=C(C)C(N2CCOCC2)=NP(N2CCOCC2)(N2CCOCC2)=N1	0.1	.
COc1cccc(NCc2nnc(SCC(=O)N3CCNC3=O)n2C2CCCCC2)c1	-1.55	.
c1ccc(CNCc2cn(Cc3ccccc3)c3ccccc23)cc1	-0.4	-0.575
Oc1ccc(O)c(CN2CCCCCC2)c1	0.05	.
CCN(CC)CC(O)COc1ccc(C(C)(C)CC)cc1C(C)(C)CC (stereo not given)	0.25	1
C=CCN1C(=O)/C(=C\C=C2/CCCN2C)SC1=S	1.2	.
Cc1ccc(C2=N/C(=C\c3c(C)nn(-c4ccccc4)c3N3CCCC3)C(=O)O2)s1	-1.75	.
CCn1c(C(=O)Nc2ccc(C)c(C)c2)cc2sc(Cl)cc21	0.5	-0.025
Cc1cc(N2CCCCC2)nc(N2CCOCC2)n1	-0.25	0.775
N#Cc1ncc(C(F)(F)F)cc1Oc1ccc(O)cc1	0.5	0.415
Cc1ccc(Cn2ncc3c(N4CCOCC4)ncnc32)cc1	-0.3	0.26
CCOC(=O)c1c(CN2CCN(Cc3ccccc3)CC2)n(-c2ccccc2)c2cc(Br)c(OC)cc12	.	-0.455
CN(Cc1ccccc1)C(=O)c1cnc2sccn2c1=O	-0.5	6.84
CS/C(=N\S(=O)(=O)c1ccccc1)NNc1ccccc1	2.05	-0.29
Cc1cc(C)n(CC(=O)O)n1	1.65	-0.265
O=C1SC(Nc2ccc(Br)cc2)C(=O)N1Cc1ccccc1 (stereo not given)	-1	20
COC(=O)c1cccc2cccc(I)c12	-0.35	0.465
CC(=O)N(/C=C1\Sc2ccccc2C1=O)c1cc(C(F)(F)F)ccc1Cl	.	-0.98
CCOc1ccc(N2C(=O)NC(=O)/C(=C\c3ccc(OCC(=O)O)c(OC)c3)C2=O)cc1	.	-0.19
CCOc1cccc2cc(-c3nnc(NCc4ccccc4)s3)c(=O)oc12	.	0.29
Carrying on:
SMILES	AID504770	Ba CapD inh
COC(=O)c1ccccc1NCNc1ccccc1C(=O)OC	-0.15	42.8
COc1ccccc1C1OCC2C(C)C=C(C)C1C2C (stereo not given)	.	-1.62
Cc1cc(=O)n2c(c1C#N)SCCC2	1.35	.
COc1cccc(Cn2c(-c3cncs3)nc3ccccc32)c1	0	2.65
Clc1ccccc1Oc1cnc2ccccc2n1	2	-0.85
COC(=O)COc1ccc(C(C2=C(O)CC(C)(C)CC2=O)C2C(=O)CC(C)(C)CC2=O)cc1 (stereo not given)	.	5.9
CCN1CCCC(OC(=O)NC2CCCCC2)C1 (stereo not given)	-0.6	-0.535
O=C1C(c2ccc([N+](=O)[O-])cc2)=C(O)c2ccccc21	.	-1.91
Cc1cccc(N2CCN(C(=O)CCCC(=O)O)CC2)c1C	0.7	0.125
CS(=O)(=O)c1ccc([C@@H](O)[C@@H](CO)NC(=O)C(Cl)Cl)cc1	-0.05	0.09&-0.24
NS(=O)(=O)c1ccc(C(=O)N/N=C/c2ccc(F)cc2)cc1	.	0.055
CC(C)NC(=O)C1c2ccccc2C(=O)N(C)C1c1c[nH]c2ccccc12 (stereo not given)	0.4	0.44
CN1CCC(=CC(=O)O)CC1	-0.45	.
CCC(C)NC(=O)Cn1nc(C)c(S(=O)(=O)N2CCCCC2)c1C (stereo not given)	1.05	.
CCOC(=O)c1c(-c2ccccc2)oc2c(-c3ccccc3)cc(O)cc12	0.6	-0.5
O=C(NC1CC1)c1ccc(CSCc2cccc(F)c2)o1	0.45	0.1
COC(=O)c1ccc(NC(=O)/C(=C/c2ccc3c(c2)OCO3)NC(=O)c2ccc(C)c(C)c2)cc1	.	4.97
CC1(C)CC(NCc2ccco2)CC(C)(C)N1	0.35	0.48
O=C(O)c1ccccc1CSc1nc2cc(Cl)ccc2o1	1.65	.
COc1ccc(CNCC(O)COCc2cccs2)cc1 (stereo not given)	0.15	.
COc1ccc(OC)c(NC(=O)c2ccc(N3C(=O)CCC3=O)cc2)c1	-0.65	.
CN(CCc1ccccn1)C(=O)c1cc2nc(-c3ccc(F)cc3)cc(C(F)(F)F)n2n1	.	0.35
N#Cc1c(NC(=O)C2=COCCO2)sc2c1CCC2	-0.25	-0.52
Cc1nn(C(=O)Nc2c(-c3c(Cl)cccc3Cl)noc2C)cc1-c1ccccc1	.	0.23
N#CC(C#N)=Cc1cn(-c2ccccc2)nc1-c1ccc2c(c1)OCCO2	0.25	.
CCOC(=O)/C(=C(/C)N)C1CC(=O)N(c2ccc(C(=O)OCC)cc2)C1=O (stereo not given)	-0.3	0.135
CCCc1cc(CN)on1	0.05	.
COc1ccc2[nH]c(C(=O)NC3CCN(Cc4ccccc4)CC3)cc2c1	-1.25	72.7
CC1=Nc2ccccc2N=C(NC(=O)c2ccccc2)C1c1ccccc1 (stereo not given)	-0.1	-0.55
CC1(C)Cc2c(ccc3ccccc23)C(=O)N1	-0.75	.
COc1ccc2[nH]cc(CCNC(=O)OCC#Cc3ccccc3)c2c1	.	-0.48
Fc1ccc(NC(=S)NCCNC(=S)Nc2ccc(F)cc2F)c(F)c1	.	0.48
CCn1c(Sc2nnnn2-c2ccccc2)nc2cc(S(=O)(=O)N3CCOCC3)ccc21	-0.35	.
CC(Sc1nc(-c2ccccc2)cc(C(F)(F)F)n1)C(=O)O (stereo not given)	0.05	-0.38
CCCCCCNC(=O)c1c[nH]c2ccc(S(=O)(=O)N(C)c3ccc(Br)cc3)cc2c1=O	.	0.245
Cc1ccccc1Cn1c(C(C)NC(=O)C(C)(C)C)nc2ccccc21 (stereo not given)	-0.75	-0.06

Ordered by number of heavy atoms (low to high): some entries from above.
SMILES	AID504770	Ba CapD inh
CCCc1cc(CN)on1	0.05	.
CC1(C)Cc2c(ccc3ccccc23)C(=O)N1	-0.75	.
CC(Sc1nc(-c2ccccc2)cc(C(F)(F)F)n1)C(=O)O (stereo not given)	0.05	-0.38
Cc1ccccc1Cn1c(C(C)NC(=O)C(C)(C)C)nc2ccccc21 (stereo not given)	-0.75	-0.06
CC1=Nc2ccccc2N=C(NC(=O)c2ccccc2)C1c1ccccc1 (stereo not given)	-0.1	-0.55
CCCCCCNC(=O)c1c[nH]c2ccc(S(=O)(=O)N(C)c3ccc(Br)cc3)cc2c1=O	.	0.245

Following part:
SMILES	AID504770	Ba CapD inh
CCOc1ccc(-n2c(=S)sc3c2nc(SCC(=O)NC2CCCCC2)n2c4ccccc4nc32)cc1	.	3.35
O=C(NCC1CCCO1)C12CC3CC(CC(C3)C1)C2 (stereo not given)	1.25	.
COc1ccc2ccccc2c1CN1CCN(C(=O)c2ccco2)CC1	0.2	0.235
O=S(=O)(c1cccs1)c1cccs1	-0.65	-0.08
Cc1ccc(N2COc3ccc4c(C)cc(=O)oc4c3C2)cc1	.	42.9
CCCCn1c(CN2CCOCC2)nc2ccccc21	0	1.13
Oc1cccc2c1NCCC2	-0.4	.
COC(=O)c1ccccc1OC(=O)c1ccncc1	-0.25	0.06
O=C(O)CN1CCSC1=O	-0.25	.
Cc1ccc2cc3cc(C(=O)NC4CC4)oc3nc2c1	-0.1	55.3
CC(C)S(=O)(=O)c1nc2ccccc2n1CC(=O)N1CCCc2ccccc21	1.5	.
CC1=CC(C)(C)N(C(=O)c2ccc(F)cc2)c2cc3c(cc21)OCO3	0.3	-1.37

Single records (already shown):
Shown for Cc1cccc(C)c1NC(=S)NC12CC3CC(CC(C3)C1)C2 → AID504770 = 1.5; Ba CapD inh = -0.055
Shown for Cc1ccc(Cn2ncc3c(N4CCOCC4)ncnc32)cc1 → AID504770 = -0.3; Ba CapD inh = 0.26
Shown for O=C1SC(Nc2ccc(Br)cc2)C(=O)N1Cc1ccccc1 (stereo not given) → AID504770 = -1; Ba CapD inh = 20

(continued)
SMILES	AID504770	Ba CapD inh
Cc1ccc(C(=O)Cn2nnc(-c3ccc(N)cc3)n2)cc1	-0.6	.
Clc1ccccc1CSc1nc(NCC2CCCO2)c2ccccc2n1 (stereo not given)	-0.35	0.39
Cc1cc(C(F)(F)F)nn1CC(=O)NCc1cccs1	-0.1	0.53
C[C@H]1[C@H](NC(=O)/C(=N\OC(C)(C)C(=O)O)c2csc(N)n2)C(=O)N1S(=O)(=O)O	.	-0.325
Cc1cc(C)nc(N2CCN(c3ncnc4c3cnn4-c3ccccc3)CC2)n1	.	-0.33
COc1ccc(OC)c(C2C(C(=O)OC3CCCC3)=C(C)NC3=C2C(=O)CC(c2ccc(OC)c(OC)c2)C3)c1 (stereo not given)	.	2.24
Cc1ccc(CN2CC34C=CC(O3)C(C(=O)NCCc3ccc(Cl)cc3)C4C2=O)cc1 (stereo not given)	.	1.07
O=C(Oc1ccccc1N1CCCCC1)c1ccco1	-0.7	0.44
O=C1CCC(C(=O)NN2C(=O)c3cccc4cccc(c34)C2=O)=NN1	-0.65	.
O=C(/C=C/c1ccco1)NC(=S)NC1CCCCC1	-0.2	.
CSc1ccc(-c2nc3ccc(C)cn3c2NC2CCCCC2)cc1	-1.1	-0.22
NC(=NS(=O)(=O)c1ccccc1)c1ccccc1F	-1.45	-0.55
CC1CSc2nc3sc4c(c3c(=O)n21)CCCC4 (stereo not given)	0.9	.
CCOc1ccccc1NC(=O)c1cc(S(=O)(=O)N2CCN(c3cccc(C)c3C)CC2)ccc1F	.	1.17
C#CCSc1nc2c(c(=O)n1C1CCOC(C)(C)C1)C1(CCCCC1)Cc1ccccc1-2 (stereo not given)	.	0.1
O=C1NC2(CCN(C(=O)c3ncoc3-c3ccccc3)CC2)Oc2ccccc21	-0.25	0.84
COc1ccc2nc(-c3nc4ccccc4s3)sc2c1	-0.35	.
COc1nc(NCC(C)C)nc(Oc2ccc(OCc3ccccc3)nn2)n1	1.3	-0.03
O=C(On1c(-c2ccccc2)cc2ccccc21)c1cccnc1Cl	-0.55	5.43
Cc1cc(C)n(-c2ccc(C(=O)C(C#N)c3nc4ccccc4n3C)cc2)n1 (stereo not given)	-0.5	0.54
CCCc1nn2cc(-c3ccccc3)nc2s1	-0.2	-0.945
